Source: PubChem BioAssay
Sa growth inh = blocks Staphylococcus aureus growth; S. aureus RN4220 growth, OD600, 20 h, 42 °C; stronger effect = lower value; relative growth, % (concentration not given with the values); 0.53% of 170,000 active; AID 720641;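 active means growth at 42 °C up to 50% and 20 or more points under that at 30 °C, or under 10% at both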;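 further: 300 nL library stock went into each well; scaled to the means of positive and negative controls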
HCMV UL50-53 inh = disrupts HCMV UL50-UL53 complex binding; 0.15% of 190,000 active; AID 1918969; HTRF UL50-UL53 interaction, normalized percent inhibition; inhibition, % (test concentration not listed);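 active means both replicates at 50% or more, plus weaker picks with an unusually low signal ratio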;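 further: stock transfer was 100 nL into about 20 µL; 0% = negative control wells and 100% = wells with untagged competitor protein; inactives centre near -12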
GIV-Gai inh = inhibitors of GIV GBA-motif binding to rat Galpha-i3 | P08753 | Galpha-i3/FITC-GIV peptide fluorescence polarization, 90 min; stronger effect = lower value; scaled: aluminum fluoride 0%, vehicle 100% | percent of control (FP), % (test concentration not listed) | 0.42% of 210,000 active;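 active means replicate mean at 85% of control or lower, very high polarization wells dropped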;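 further: wells of about 15 µL received 100 nL stock; the first replicate is given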
Target sequence (P08753 whole entry, looked up): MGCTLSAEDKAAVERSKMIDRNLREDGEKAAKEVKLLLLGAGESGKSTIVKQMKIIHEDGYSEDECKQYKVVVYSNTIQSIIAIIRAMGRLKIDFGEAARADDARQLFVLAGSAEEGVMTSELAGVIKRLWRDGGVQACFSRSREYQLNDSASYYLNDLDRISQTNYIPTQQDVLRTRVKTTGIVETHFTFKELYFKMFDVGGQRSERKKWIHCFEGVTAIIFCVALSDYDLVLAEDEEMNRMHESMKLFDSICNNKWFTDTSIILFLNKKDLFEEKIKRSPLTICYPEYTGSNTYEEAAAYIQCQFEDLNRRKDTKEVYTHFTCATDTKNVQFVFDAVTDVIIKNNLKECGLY
Sa growth inh second temp = also measured in Sa growth inh; calls as there; relative growth, %; measured here: growth at 30 °C;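 optical density after 20 h as mean of two plates; 100% = untreated growth and lower means inhibition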
* marks the source's active call; other numbers are inactive results; i = inactive; x = no result given; & = joins results of further samples.

SMILES	Sa growth inh	Sa growth inh second temp	HCMV UL50-53 inh	GIV-Gai inh
CCC1CCCCN1Cc1ccc(CNC(=O)c2cc3ccc4cccnc4c3[nH]2)o1 (stereo not given)	104	72	-36	103
COc1ccc(CNC(=O)c2cc3ccccc3oc2=O)cc1	96	84	-23	x
CN(C(=O)COC(=O)Cc1c[nH]c2ccccc12)C1CCCCC1	92	89	7	x
CN(CC(=O)N1CCCCCC1)S(=O)(=O)c1cccc2cccnc12	173	83	0	102
O=C1CC(C(=O)Nc2ccc(Cl)cc2)SC(=Nc2ccccc2)N1 (stereo not given)	104&98	85&95	-43&-15	99
CC(CN1C(C)CCCC1C)OC(=O)c1ccc(F)cc1 (stereo not given)	89	87	-24	103
Cc1sc2nc(CCl)nc(Cl)c2c1C	89	61	-5	x
COc1ccccc1-n1ncc2c(=O)[nH]c(SCC(=O)Nc3ccc(Cl)cc3)nc21	95	79	x	105
O=C1OC(c2ccc(Cl)cc2)Sc2ccccc21 (stereo not given)	109	101	-6	108
CC(C)C(NC(=O)c1ccccn1)c1ccc2c(c1)OCCCO2 (stereo not given)	104	84	-17	x
C=CCN1C(=O)N(c2ccccc2)C(=O)C1CC(=O)Nc1ccccc1 (stereo not given)	93	85	x	96
CCOC(=O)CSc1nc2c(sc3ccccc32)c(=O)n1CCO	92	86	x	104
COc1cc2c(cc1OC)C1CC(=O)C(CC(C)C)CN1CC2 (stereo not given)	92	83	-19&-7&-23	94&103
Cc1ccc2nc(CCc3nc4ccc(C)cc4[nH]3)[nH]c2c1	77	27	-19	95
CCCc1nc(NC)nc(-c2ccccc2O)n1	96	93	4	101
Cc1ccccc1-n1nnnc1SCC(=O)N1CCCc2ccccc21	139	95	6	x
CC(C)n1nnc(CC(=O)O)n1	83	95	-4	108
CC1=C(C(=O)O)SC2=NCCCCN21	103	96	10	105
COCCNC(=S)N1CCN(c2ccc(S(=O)(=O)N3CCCC3)cc2)CC1	86	82	-17	97
O=c1c2c(-c3ccccc3)csc2ncn1CCN1CCOCC1	x	x	10	100
Cc1nc(Nc2ccccc2)nc2c1nc(C(F)(F)F)n2-c1ccccc1	x	x	11	103
CN1C(=O)c2ccc(C(=O)NCCCn3ccnc3)cc2C1=O	94	109	-92	107
CCOC(=O)c1cc2ccsc2n1CC(=O)Nc1cc(OC)cc(OC)c1	x	x	-7	111
CC1=C(c2ccccc2)SC2=NCCN21	110	82	x	105
CCn1c(SCC(=O)Nc2ccccc2C(=O)NC2CC2)nc2cc(S(N)(=O)=O)ccc21	118	75	-11	x
CC1(C)c2ccccc2-n2c1cc1oc(=O)cc(O)c1c2=O	77	78	-20	103
O=C(C1CCN(S(=O)(=O)Cc2ccccc2)CC1)N1CCCc2ccccc21	95	90	7	106
O=C1C(c2ccncc2)=C(O)c2ccccc21	96	32	-45	108
O=C(CSc1ncn[nH]1)OCN1C(=O)c2ccccc2C1=O	86	79	-50	x
CCCc1n[nH]c2c1/C(=N\O)CC(c1ccccc1)C2 (stereo not given)	107	86	-43	x
Cc1ccc(C(=O)N(Cc2sccc2C)C2CCS(=O)(=O)C2)cc1 (stereo not given)	97	87	-3	101
CC(C)CCNC(=O)C1CCCN1c1nnc(N2CCCCC2=O)s1 (stereo not given)	x	x	-10	100
Nc1ccc(S(=O)(=O)Nc2ccccc2)cc1	96	93	2	x
O=C1c2ccccc2C(=Nc2ccccc2)C1c1ccccc1 (stereo not given)	122	84	-17	x
CCOC(=O)c1ccc(NC(=O)/C=C/c2cccs2)cc1	90	64	-38	x
Cc1cnc2c(c1SCC(=O)NCc1ccc3c(c1)OCO3)c(=O)n(C)c(=O)n2C	106	91	-27	101

6 structures out of the list, arranged by molar mass, falling.
SMILES	Sa growth inh	Sa growth inh second temp	HCMV UL50-53 inh	GIV-Gai inh
O=C(C1CCN(S(=O)(=O)Cc2ccccc2)CC1)N1CCCc2ccccc21	95	90	7	106
Cc1ccc(C(=O)N(Cc2sccc2C)C2CCS(=O)(=O)C2)cc1 (stereo not given)	97	87	-3	101
O=C(CSc1ncn[nH]1)OCN1C(=O)c2ccccc2C1=O	86	79	-50	x
CCOC(=O)c1ccc(NC(=O)/C=C/c2cccs2)cc1	90	64	-38	x
CC1(C)c2ccccc2-n2c1cc1oc(=O)cc(O)c1c2=O	77	78	-20	103
CCCc1n[nH]c2c1/C(=N\O)CC(c1ccccc1)C2 (stereo not given)	107	86	-43	x

The listing continues.
SMILES	Sa growth inh	Sa growth inh second temp	HCMV UL50-53 inh	GIV-Gai inh
C=C(C)C(=O)OC1CC(C)=C2C(=O)C=C(C)C2C2OC(=O)C(C)(OC(=O)C(=C)C)C12 (stereo not given)	84	56	-27	104
CCNC(=S)N(CCc1c(C)[nH]c2ccccc12)Cc1ccco1	88	73	-4	105
CCCNC(=O)Nc1ccc2c(c1)OCCO2	88	96	11	98
CN1C(=O)C(C(=O)NC(C)(C)C)C2c3ccccc3OC13CCCCC23 (stereo not given)	91	86	-4	102
COCCn1c(CNC(=O)c2ccccc2C)nc2cccnc21	88	84	x	109
CCOc1ccc(S(=O)(=O)NCC(c2ccco2)S(=O)(=O)c2ccc(F)cc2)cc1 (stereo not given)	131	91	x	100
O=C(OCc1cnc(Cl)s1)c1ccc(Cl)cc1	x	x	-16	96
Cc1cccc(N=C2NC(=O)/C(=C3/C(=O)N(CC(=O)O)c4ccccc43)S2)c1C	107	101	x	100
COc1ccc(OCCn2cc(C(=O)c3ccco3)c3ccccc32)cc1	99	81	-24	103
O=C(Nc1ccc(C(F)(F)F)cc1)c1cc(S(=O)(=O)NC2CCCCC2)ccc1F	125	61	x	103
COc1cc(Cl)c(C)cc1NC(=O)Cn1cnc2sc(C)c(S(=O)(=O)N3CCCCC3)c2c1=O	107	96	3	104
O=C(Cn1nc(-c2ccccc2)ccc1=O)NCCCN1CCC(Cc2ccccc2)CC1	106	82	1	108
O=C(CCCc1nc(-c2ccccc2)no1)Nc1ccc(N2CCOCC2)cc1	x	x	2	110
O=C1NCCCCC1NS(=O)(=O)c1ccc2c(c1)CCO2 (stereo not given)	110	95	18	103
O=S(=O)(NCC1CN(Cc2ccccc2)CN(Cc2ccccc2)C1)c1ccc(Cl)cc1	112	65	-6	108
Cc1cc(C)c2c(n1)sc1c(Sc3nnc(-c4cccs4)o3)ncnc12	99	92	-4	108
O=C(CSc1nc(-c2ccccc2)no1)Nc1ccccc1Cl	x	x	-12	102
O=C(NCCCN1CCOCC1)c1ccc2c(c1)N(Cc1cccc(Cl)c1)C(=O)c1ccccc1S2	35	8	x	101
Cc1cc(/C=c2\sc3nc4ccccc4n3c2=O)c(C)n1-c1ccc(C(=O)O)cc1	x	x	-22	110
O=C(Cc1c[nH]c2ccccc12)NCCn1c(CCc2ccccc2)nc2cccnc21	x	x	-12	108
CCOc1ccc(NC(=O)N(Cc2cn(CC)c3ccccc23)C2CCCCCC2)cc1	92	104	-6	112
CC(C)Oc1ccc(CNS(=O)(=O)c2cc3c4c(c2)CCN4C(=O)CC3)cc1	x	x	2	100
Cc1cccc(N2CCN(C(=O)c3cccc(-n4c(C)nc5cccnc54)c3)CC2)c1C	75	87	x	107
CCc1nnc(NC(=O)[C@@H]2CCCN2C(=O)c2cccs2)s1	92	91	-28	x

Compounds above that have an NH in an aromatic ring (8):
SMILES	Sa growth inh	Sa growth inh second temp	HCMV UL50-53 inh	GIV-Gai inh
CCC1CCCCN1Cc1ccc(CNC(=O)c2cc3ccc4cccnc4c3[nH]2)o1 (stereo not given)	104	72	-36	103
CN(C(=O)COC(=O)Cc1c[nH]c2ccccc12)C1CCCCC1	92	89	7	x
COc1ccccc1-n1ncc2c(=O)[nH]c(SCC(=O)Nc3ccc(Cl)cc3)nc21	95	79	x	105
Cc1ccc2nc(CCc3nc4ccc(C)cc4[nH]3)[nH]c2c1	77	27	-19	95
O=C(CSc1ncn[nH]1)OCN1C(=O)c2ccccc2C1=O	86	79	-50	x
CCCc1n[nH]c2c1/C(=N\O)CC(c1ccccc1)C2 (stereo not given)	107	86	-43	x
CCNC(=S)N(CCc1c(C)[nH]c2ccccc12)Cc1ccco1	88	73	-4	105
O=C(Cc1c[nH]c2ccccc12)NCCn1c(CCc2ccccc2)nc2cccnc21	x	x	-12	108

Additional results follow.
SMILES	Sa growth inh	Sa growth inh second temp	HCMV UL50-53 inh	GIV-Gai inh
C/C(=N/O)C12CCC(CC1)C2	87	86	-23	106
Cc1cc(Nc2ccc(NS(=O)(=O)c3c(C)noc3C)cc2)nc(N2CCCC2)n1	x	x	-9	110
c1n[nH]c(SCc2cn3ccsc3n2)n1	84	90	-15	x
CCn1c(=NC(=O)C2COc3ccccc3O2)sc2cccc(F)c21 (stereo not given)	93	85	-42	96
CC(C)c1ccc(Nc2c(-c3ccco3)nc3ccccn23)cc1	89	86	-28	104
Cc1ccc(S(=O)(=O)c2c(C(=O)N3CCCCC3)cnc3ccccc23)c(C)c1	x	x	-30	106
COc1cccc(/C=N/NC(=O)c2ccoc2C)c1	99	89	-40	100
Cc1cc(C)c2c(n1)SCCN2C(=O)Nc1ccc(F)c(Cl)c1	x	x	3	110
CCN(c1cccc(C)c1)C(C(=O)NC1CCCC1)c1ccccc1 (stereo not given)	105	92	x	99
Cc1cc(N(Cc2cccc(Cl)c2Cl)C(=O)c2ccccc2)no1	100	98	5	102
Cc1nc(-c2ccc(Cl)c(S(=O)(=O)N3CCCC(C(=O)NCc4ccc(Cl)cc4)C3)c2)no1 (stereo not given)	x	x	1	103
COc1ccc(-c2nc(-c3ccccc3)c(-c3ccc(O)cc3)[nH]2)cc1	97	81	-16	100

Filtered by structure, the compounds so far containing a CF3 group
SMILES	Sa growth inh	Sa growth inh second temp	HCMV UL50-53 inh	GIV-Gai inh
Cc1nc(Nc2ccccc2)nc2c1nc(C(F)(F)F)n2-c1ccccc1	x	x	11	103
O=C(Nc1ccc(C(F)(F)F)cc1)c1cc(S(=O)(=O)NC2CCCCC2)ccc1F	125	61	x	103

Additional results follow.
SMILES	Sa growth inh	Sa growth inh second temp	HCMV UL50-53 inh	GIV-Gai inh
CC(C)(C)NC(=S)N1CCn2cccc2C1c1ccccc1F (stereo not given)	94	87	x	103
COC(=O)c1cc(S(=O)(=O)N2CCCC(CN3CCc4ccccc4C3)C2)c[nH]1 (stereo not given)	x	x	6	109
O=C1N=c2ccc(Br)cc2=C1c1sc(=O)n(-c2ccccc2)c1O	x	x	10	101
O=C(c1ccc(N2CCNCC2)c(NS(=O)(=O)c2ccc(Cl)cc2)c1)N1CCOCC1	x	x	-8	103
Nc1n[nH]c(C(F)(F)C(F)(F)C(F)(F)F)n1	103	73	i	101
O=C(CCc1nnc2ccc(NCc3ccco3)nn12)Nc1cccnc1	96	88	1	103
CCC1c2cccn2-c2sc3c(c2CN1C(=O)NC1CCCC1)CCCC3 (stereo not given)	x	x	-20	113
CC(C)c1ccc(/C=C2\Sc3ccccc3C2=O)cc1[N+](=O)[O-]	x	x	-7	101
Cc1ccn2c(Nc3ccc4c(c3)OCCO4)c(-c3cccs3)nc2c1	93	82	-13	106
Cc1nc(-c2cc3cc(Cl)ccc3o2)cs1	76	83	-30	98
Cn1ncc(C(C#N)c2nc3ccccc3s2)c(Cl)c1=O (stereo not given)	15	11	-103	x
Cc1ccc2cc(-c3noc(CCCC(=O)NC4CCCCC4)n3)c(=O)[nH]c2c1	x	x	-26	109
COc1ccc2c(c1)sc1ncc(C(=O)NCc3ccc(Cl)cc3)c(=O)n12	103	93	-4	93
CN(C)c1ccc(CNC(=O)C2(NS(=O)(=O)c3cccc4cccnc34)CCCCC2)cc1	x	x	-30	105
